Compound activity from PubChem BioAssay.
Proteasome disasm: blocks ATP-dependent breakdown of the yeast 26S proteasome. anti-FLAG beads, GFP-proteasome disassembly, flow cytometry. inhibition of disassembly, % (concentration not given with the values). 24,000 tested, 0.2% active. AID 751;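 active means above 40%; inconclusive means likely self-fluorescent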;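 further: plate controls were ATP control with full disassembly for no effect and ATP-gamma-S intact proteasomes for full effect; higher percent means more bead fluorescence retained so stronger block of disassembly; stock transfer was 100 nL into about 10 µL; wells with too few beads may also be inconclusive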
VCAM-1 up: enhancers of VCAM-1 display on endothelial cells, cell-based, plate reader, pooled HUVEC, TNFa stimulus (AID 455) | HUVEC TNFa-induced VCAM-1 immunofluorescence, plate reader; numbers were filed only for top-ranked candidate wells | augmentation, % at 5 µM | 10,000 tested, 0.2% active;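 active means a compound raising TNF-alpha-driven VCAM-1 surface staining, with its hit status upheld on visual or statistical review; inactive means the rest, including hits rejected on review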;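 further: 0% = TNFa with vehicle and 100% = strongest image-checked hit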
* marks the source's active call; other numbers are inactive results; i = inactive; ? = inconclusive; / = not tested or not shown.

Proteasome disasm	VCAM-1 up	canonical_smiles
0.2	/	Cn1cccc1C1(C(F)(F)F)NCCNC1=O (configuration not stated)
-3.7	/	O=C(O)c1ccccc1NCc1ccncc1
1.4	i	COC(=O)c1ccc(NC(=O)CN2CCCC2)cc1
1.6	i	O=C(CSc1ncnc2sc3c(c12)CCCCC3)NCc1ccco1
5.5	i	O=C(CSc1ncnc2c1cnn2-c1ccccc1)Nc1ccccc1
-1.5	/	Cc1ccc(C2CCN(C(=O)Nc3ccccc3)C2)cc1 (configuration not stated)
0.5	i	O=C(CCSc1ccccc1)N1CCOCC1
0.5	i	COc1ccc(CN(CC(=O)NCC2CCCO2)C(=O)CNS(=O)(=O)c2ccc(C)cc2)cc1 (configuration not stated)

Part of the list above, as labelled records.
canonical_smiles: COC(=O)c1ccc(NC(=O)CN2CCCC2)cc1
  Proteasome disasm: 1.4
  VCAM-1 up: i

canonical_smiles: O=C(CSc1ncnc2sc3c(c12)CCCCC3)NCc1ccco1
  Proteasome disasm: 1.6
  VCAM-1 up: i

canonical_smiles: O=C(CSc1ncnc2c1cnn2-c1ccccc1)Nc1ccccc1
  Proteasome disasm: 5.5
  VCAM-1 up: i

canonical_smiles: Cc1ccc(C2CCN(C(=O)Nc3ccccc3)C2)cc1 (configuration not stated)
  Proteasome disasm: -1.5
  VCAM-1 up: /

(list continues)
Proteasome disasm	VCAM-1 up	canonical_smiles
0.9	/	O=C(CN1C(=O)CSc2ccccc21)NCCC1=CCCCC1
0.1	i	c1ccc(-c2cc3c(nn2)CCc2nonc2-3)cc1
-0.5	/	O/N=C1\CC/C(=N\O)c2nn(-c3ccccc3Cl)nc21
1.6	i	N#CCc1ccc(NC(=O)Nc2cccc(Cl)c2)cc1
-0.3	i	CN1CCN(C2=Nc3ccccc3Oc3ccc(Cl)cc32)CC1
1.5	/	Cc1noc(C)c1S(=O)(=O)N(CC(=O)N1CCc2ccccc21)c1ccc(C(C)C)cc1
-1.9	i	CC(=O)Nc1ccc(Cl)c(C(N)=O)c1
-1.3	/	CCOC(=O)c1ccc(CNC(=O)c2cc3cccc(OC)c3oc2=O)o1
0.3	/	CS(=O)(=O)N1CCCC(C(=O)NCc2ccco2)C1 (configuration not stated)
-1.9	/	Cc1ccccc1S(=O)(=O)Cc1ccc(C(=O)N2CC(C)CC(C)C2)o1 (configuration not stated)
0.7	i	CCc1ccc(C(=O)NC2CCCCC2)s1
-0.1	/	Cc1cc(N2CCCc3ccccc32)n2ncnc2n1
0.5	/	Cc1noc(/C=C/N(C)C)c1S(=O)(=O)N1CCCC(C(=O)NCc2ccccc2Cl)C1 (configuration not stated)
1.7	/	O=C(O)CCCC(=O)N1CCc2cc(S(=O)(=O)N3CCc4ccccc43)ccc21
2.5	/	Cc1cccc(CSc2nnc(Cn3c(=O)sc4ccccc43)n2C)c1
0.4	i	Cc1nc2c(C(=O)O)cnn2c(C)c1Cc1ccccc1F
-0.5	i	CCOC(=O)N1CCN(C(=O)C2CC(=O)N(Cc3ccc(OC)cc3)C2)CC1 (configuration not stated)
0.9	/	O=S(=O)(Nc1ccc2c(c1)OCCO2)c1cccc2cccnc12
-0.7	i	CCn1cc(C(=O)N2CCOCC2)c(=O)c2cc(S(=O)(=O)N(C)C3CCCCC3)ccc21
-0.8	/	CCN(CCCNC(=O)C1CCN(S(=O)(=O)N2CCC3(CC2)OCCO3)CC1)c1ccccc1
0.3	i	COc1ccc(CN2C(=O)c3cccnc3C2Nc2cc(Cl)ccc2OC)cc1 (configuration not stated)
-0.5	/	CC(=O)N1CCc2cc(S(=O)(=O)CCC(=O)Nc3ccc4c(c3)OCCO4)ccc21
-0.2	/	O=C(c1ccccc1)n1nc(-c2ccccc2)nc1NCc1ccco1
-0.4	/	CCn1cc(C(=O)N2CCc3ccccc32)c(=O)c2cc(S(=O)(=O)N3CCOCC3)ccc21
-0.9	i	COCCNC(=O)CN(C)S(=O)(=O)c1ccc2c(c1)OCCO2
-0.2	/	CC(C)Cc1cc(C(=O)NCc2ccco2)no1
0.6	/	Cc1ccccc1-c1ccc(C=Nc2c(C)n(C)n(-c3ccccc3)c2=O)o1
0.1	i	O=C(OCc1cc2ccccc2[nH]c1=O)c1ccco1
-0.2	i	Cc1ccc(CCNC(=O)C2CCC(=O)N2C2CCCC2)cc1 (configuration not stated)
3.2	i	c1ccc(Oc2ccc(-n3cnnn3)cc2)cc1
0.2	/	Cc1ccc(S(=O)(=O)N(Cc2nccn2C)C(C)C)cc1
-2.4	/	COc1cc2c(cc1OC)C(c1ccc3c(c1)OCO3)C1=C(CC(C)(C)CC1=O)N2 (configuration not stated)
0.1	i	CCOC(=O)N1CCC(c2cc(=O)n3[nH]c(C)c(-c4ccc(F)cc4)c3n2)CC1
2.4	/	COCCN1Cc2cccc(C(=O)Nc3ccc(S(=O)(=O)N4CCCCCC4)cc3)c2C1=O
1.1	i	COC(=O)c1ccc(C)c(NS(=O)(=O)c2ccc3c(c2)OCCO3)c1
4.2	i	Cc1cc2c(c(=O)n1C)C(Cc1ccccc1)C(C#N)=C(N)O2 (configuration not stated)
2.3	i	O=C(CSc1nc(O)cc(=O)n1-c1ccccc1)N1CCCCC1
0.6	/	CCSc1nnc(-c2ccccc2NC(C)=O)c(=O)[nH]1
-0.7	i	CC1=C(C(=O)NCc2ccco2)C2(CCC(C)CC2)OC1=O (configuration not stated)
0.9	i	Cc1ccc(C)c(CSc2nnc(CCN)o2)c1
-0.6	/	CCOC(=O)C1CCN(C(=O)CN(c2ccc(OC)cc2)S(=O)(=O)c2c(C)nn(C)c2C)CC1
0.6	/	O=C(NCCCN1CCOCC1)c1cc(-c2ccc3c(c2)OCO3)nc2ccccc12
-2.6	i	O=C(CC(SCCO)c1ccc2c(c1)OCO2)c1ccco1 (configuration not stated)
-3.3	i	Cn1c(=O)c2ncn(CC(=O)NCCOc3ccccc3)c2n(C)c1=O
1.2	i	O=C(NCC(=O)N(c1ccc2c(c1)OCCO2)C(C(=O)NC1CCCC1)c1ccco1)c1ccco1 (configuration not stated)
0.3	/	COc1ccc(Cl)cc1S(=O)(=O)n1ccnc1C(C)C
?	/	CCC(CC)C(=O)N(c1ccc(F)cc1)C1C=CS(=O)(=O)C1 (configuration not stated)
1.6	/	Cc1ccc(C)c(Cn2c(=O)c3c(nc4n3CCN4Cc3ccco3)n(C)c2=O)c1

Laid out differently: 2 of the compounds above
mol	Proteasome disasm	VCAM-1 up
COc1ccc(Cl)cc1S(=O)(=O)n1ccnc1C(C)C	0.3	/
O=C(NCC(=O)N(c1ccc2c(c1)OCCO2)C(C(=O)NC1CCCC1)c1ccco1)c1ccco1 (configuration not stated)	1.2	i

Carrying on.
Proteasome disasm	VCAM-1 up	canonical_smiles
0.3	/	O=C(NC1CCCCCC1)C1CCN(S(=O)(=O)c2cccc3cccnc23)CC1
0.4	i	O=C(Nc1ccc(-c2noc(-c3cccs3)n2)cc1)c1cccnc1
0.1	/	COc1cccc(NS(=O)(=O)c2ccc3[nH]cc(C(=O)NCCC(C)C)c(=O)c3c2)c1
-0.3	/	Cn1c(Cn2c(=O)sc3ccccc32)nnc1SCc1ccccn1
1.0	/	Cc1cc(N2CCN(C3CCCCC3)CC2)nc2cccc(O)c12
-0.2	i	Cc1ccc(C)c(N2CCN(C(=O)CCCn3c(=S)[nH]c4cc5c(cc4c3=O)OCO5)CC2)c1
-0.2	/	CCOC(=O)N1CCN(S(=O)(=O)c2c(C)nn(C)c2C)CC1
3.4	/	COCCNC(=O)C1CCCN(c2nn3c(=O)cc(C)nc3s2)C1 (configuration not stated)
0.0	/	Cc1cccc(N2CCN(C(=O)c3cc4c(=O)n(C)c5ccccc5c4n3C)CC2)c1C
10	/	CCc1c(C(=O)NCc2ccccc2Cl)[nH]c(C)c1C(C)=O
-3.2	/	Cn1cccc1CNC(=O)Nc1ccc(Cl)cc1
0.7	/	CCCCNC(=O)CC1N=C2c3ccccc3N=C(SCC(=O)Nc3ccccc3OC)N2C1=O (configuration not stated)
1.2	/	COc1ccc(NC(=O)CCN2CCN(S(=O)(=O)c3cc(Cl)ccc3OC)CC2)cc1
-1.3	i	Cc1nn(C)cc1/C=N/O
0.4	i	Nc1nc2n(n1)C(c1cccc(Br)c1)CC(c1ccc(F)cc1)N2 (configuration not stated)
-1.4	/	Cc1cccc(N2CCN(C(=O)C3CCN(S(=O)(=O)c4cccc5nsnc45)CC3)CC2C)c1 (configuration not stated)
0.5	i	O=C(Cc1cccs1)Nc1ccccc1NC(=O)Cc1cccs1
-0.3	/	CC(=O)Nc1cccc(Cl)c1C(=O)O
-1.6	/	COc1ccc(-c2nnc(SCC(=O)N3CCN(c4ccccc4)CC3)o2)cc1OC
0.7	/	CCOC(=O)C1CCN(C(=O)C2CCN(S(=O)(=O)CC)CC2)CC1
-0.1	/	O=C(Nc1cnc2ccccc2c1)c1cccnc1
-2.2	i	O=S(=O)(Nc1cccc2ncccc12)c1cccs1
-6.8	i	O=c1c2cnn(-c3ccccc3)c2ncn1/N=C/c1ccncc1
1.4	i	c1ccc(N2CCN(Cc3ccnc4ccccc34)CC2)cc1
0.2	/	O=C(NCc1cccs1)c1cccc(N2CCCC2=O)c1
0.7	/	Nc1cccc2cnccc12
-0.6	/	Cc1cc(C)c2c(n1)nn1c(C)c(CCC(=O)NCc3ccco3)c(C)nc21
0.0	/	Cc1ccc(C)c(N2CCN(C(=O)c3ccc(Cn4c(=O)[nH]c5ccccc5c4=O)cc3)CC2)c1
-0.5	i	COC(=O)COc1ccc(S(=O)(=O)NCCC2=CCCCC2)cc1
3.8	/	CCC(Sc1nc2n[nH]c(C)c2c(=N)n1-c1cccc(Cl)c1)C(=O)NCCOC (configuration not stated)
-0.6	/	O=C(CCCn1c(SCC(=O)NC2CCCCC2)nc2ccccc2c1=O)NCC1CCCO1 (configuration not stated)
-4.1	i	COC(=O)c1c(C)oc2ccc(NS(=O)(=O)c3cccs3)cc12
-1.2	/	CSc1cccc(NS(=O)(=O)c2cccc3nsnc23)c1
1.6	/	CCC(Sc1nc2ccccc2c(=O)n1CC1CCCO1)C(=O)NCc1cccnc1 (configuration not stated)
-1.1	/	Cc1ccccc1-n1c(=O)cc(N2CC(C)OC(C)C2)[nH]c1=O (configuration not stated)
1.5	/	Cc1ccc(C2=NCCNC2=O)c(C)c1
1.0	/	COc1ccc(C)cc1NC(=O)CN1CCN(S(=O)(=O)c2ccc(F)cc2)CC1
0.5	i	COC(=O)c1sc(S(=O)(=O)Nc2ccc3cn[nH]c3c2)c(C(=O)OC)c1C
1.4	/	CC(C)N(C)C1CCN(C(=O)Nc2ccc(Cl)c(Cl)c2)CC1
-1.8	i	COc1ccc(C(c2sc3nc(C)nn3c2O)N2CCCCC2)cc1 (configuration not stated)
0.9	i	CC1(C)Cc2noc(N)c2C(C)(C)N1OC(=O)c1ccccc1
-0.5	/	COc1cccc(C2CC(c3ccccc3OC)n3ncnc3N2)c1 (configuration not stated)
1.3	/	CCOC(=O)N1CCC(NC(=O)CCc2cn(C)c3ccccc23)CC1
3.1	i	CCCn1cnc2c(c1=O)c1nc3ccccc3nc1n2Cc1ccccc1OC
4.3	/	CCOC(=O)N1CCC(NC(=O)C(C)n2c3ccccc3c3cnn(C)c(=O)c32)CC1 (configuration not stated)
0.5	/	Cc1nn(Cc2nc(-c3cccs3)no2)c(C)c1Br
-2.7	i	CN(C)CCCOC(=O)CCc1ccccc1
-2.6	i	O=C(c1ccccc1)N1CCN(Cc2ccccc2Br)CC1
-1.1	/	CC(NC(=O)Nc1nnc(C(F)(F)F)s1)N1C(=O)C2C3C=CC(C3)C2C1=O (configuration not stated)
0.9	/	COc1ccc(-c2noc(CN3CCN(c4ccccc4)CC3)n2)cc1
0.4	/	CC12CC(NC(=O)N1c1ccc(C(=O)N3CCN(c4ccc(F)cc4)CC3)cc1)c1ccccc1O2 (configuration not stated)
1.6	i	Cc1ccc2c(c1)CCCN2C(=O)c1ccc2c(c1)OCO2
1.4	/	C=C(C)Cn1c(CCNC(=O)CCC)nc2ccccc21
1.3	i	Cn1nnnc1SCC(=O)N1CCN(c2cccc(Cl)c2)CC1
-4.7	/	COc1ccc(CN2CCN(C(=O)CN3C(=O)C4C5C=CC(C5)C4C3=O)CC2)c(OC)c1OC (configuration not stated)
29	/	CC(=O)c1cccc(NC(=O)CC2Oc3ccc(C)cc3NC2=O)c1 (configuration not stated)

Remaining list, next part:
Proteasome disasm	VCAM-1 up	canonical_smiles
2.1	i	Fc1ccc(-c2nnc(CN3CCN(c4ncc(C(F)(F)F)cc4Cl)CC3)o2)cc1
2.7	/	COc1ccc(C(=O)Nc2ccc(Cl)cn2)cc1Cl
1.3	i	COC(=O)c1ccccc1S(=O)(=O)NC(=O)c1ccccc1
-2.9	i	O=C(NCC(F)(F)F)Nc1cccnc1
0.9	/	CCOc1ccc(N(CC(=O)N2CCc3ccccc32)S(=O)(=O)c2c(C)noc2C)cc1
0.2	/	COc1ccc(-c2cc(C(=O)Nc3c(C)nn(Cc4ccccc4Cl)c3C)no2)cc1OC
0.6	/	Cn1c(Cn2c(=O)sc3ccccc32)nnc1SCC(=O)NCCc1ccccc1
?	/	CCCCN(C)Cc1c(C)[nH]c2ccc(Cl)cc2c1=O
0.6	/	Cc1cc(NC(=O)c2cc(-c3cccs3)on2)nn1Cc1ccc(Cl)cc1
-1.8	i	C(#Cc1ccccc1)Cn1nnc2ccccc21
-0.8	/	CC1CCN(C(=O)CSc2ccc3nnc(-c4ccc(F)cc4)n3n2)CC1
0.2	i	Cc1ccc(NCc2nnc(SCC(=O)N3CCCCC3)n2CC2CCCO2)c(C)c1 (configuration not stated)
-0.3	/	Cc1nc2c(C(=O)NCc3ccc4c(c3)OCO4)c[nH]n2c(=O)c1Cl
-4.2	/	O=C(NCc1ccc2c(c1)OCO2)c1c[nH]c2ccc(S(=O)(=O)N3CCOCC3)cc2c1=O

These rows are one share of the data. The share of hits here may be higher or lower than overall.
